Compound activity from PubChem.
LANA-H2B inh = blocks KSHV LANA binding to histone H2A/H2B; Q9QR71; cell-free LANA-H2A/H2B peptide, fluorescence polarization; inhibition, % (concentration not given with the values); hit rate 0.6% among 320,000; in the data active means inhibition mostly above about 10%, no sharp cut-off; inactive means mostly below about 6.7%;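 further: stock transfer was 7.5 nL into about 10 µL; 0% = median of vehicle wells and 100% = median of positive control wells; one replicate is shown; the record names a cut of 25% in any replicate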
B2AR ag = activates human beta-2 adrenergic receptor causing internalization | P07550 | Am2.2-beta2AR cells, FAP receptor internalization, flow cytometry; reference of the scale not given here | response, % (no concentration beside the values) | hit rate 0.43% among 340,000;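 active means response above a set limit, near 3 SD of response in nonfluorescent compounds, cut at about 42% in these data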;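 further: stock transfer was 100 nL into about 11 µL; a reference agonist was the positive control; negative values mostly stem from fluorescent compounds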
Target sequence (P07550 whole entry, looked up): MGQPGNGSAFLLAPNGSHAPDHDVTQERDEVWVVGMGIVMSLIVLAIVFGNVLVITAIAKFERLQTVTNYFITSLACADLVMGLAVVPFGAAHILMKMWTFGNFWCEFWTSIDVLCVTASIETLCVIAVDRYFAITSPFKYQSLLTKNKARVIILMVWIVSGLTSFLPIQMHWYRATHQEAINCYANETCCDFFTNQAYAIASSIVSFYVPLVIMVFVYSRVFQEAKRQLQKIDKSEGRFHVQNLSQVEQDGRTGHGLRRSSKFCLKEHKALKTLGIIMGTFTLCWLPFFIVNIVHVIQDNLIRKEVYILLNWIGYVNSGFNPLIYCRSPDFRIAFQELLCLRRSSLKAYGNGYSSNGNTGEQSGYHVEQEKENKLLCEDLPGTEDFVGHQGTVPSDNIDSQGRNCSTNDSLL
Vif A3G = inhibitors of Vif binding to APOBEC3G peptide, primary screen, biochemical, TR-FRET, GST-Vif 1-94, biotin-A3G peptide, dose response retest (AID 1117319); TR-FRET GST-Vif / biotin-A3G peptide binding; higher % means a stronger effect; test concentration not given here; strong numbers were not always called active; inhibition, %; hits with a dose series show IC50 in µM; hit rate 0.57% among 260,000;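 active means above the screen mean plus three standard deviations and confirmed in dose response; inconclusive means results disagree or hit not tested in dose response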;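 further: Vif residues 1-94 fused to GST binding biotinylated APOBEC3G peptide 110-148; 0% = full assay without inhibitor and 100% = GST in place of GST-Vif; retest series ran down from 100 µM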
HNF4A DNA FP = change in binding of human HNF4 alpha to DNA; hit rate 0.3% among 360,000; AID 1224865; activity change, % at 10 µM; P41235; HNF4a-FITC DNA binding, fluorescence polarization, 1 h; in the data active means activity change above about 30%, passing the limit was not always enough;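 further: controls were the assay level and a saturating level of protein; the project sought stronger binding though the title names inhibitors; some compounds called inactive have numbers as strong as hits; positive values seem to mean higher polarization but the record does not say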
Target sequence (P41235 whole entry, looked up): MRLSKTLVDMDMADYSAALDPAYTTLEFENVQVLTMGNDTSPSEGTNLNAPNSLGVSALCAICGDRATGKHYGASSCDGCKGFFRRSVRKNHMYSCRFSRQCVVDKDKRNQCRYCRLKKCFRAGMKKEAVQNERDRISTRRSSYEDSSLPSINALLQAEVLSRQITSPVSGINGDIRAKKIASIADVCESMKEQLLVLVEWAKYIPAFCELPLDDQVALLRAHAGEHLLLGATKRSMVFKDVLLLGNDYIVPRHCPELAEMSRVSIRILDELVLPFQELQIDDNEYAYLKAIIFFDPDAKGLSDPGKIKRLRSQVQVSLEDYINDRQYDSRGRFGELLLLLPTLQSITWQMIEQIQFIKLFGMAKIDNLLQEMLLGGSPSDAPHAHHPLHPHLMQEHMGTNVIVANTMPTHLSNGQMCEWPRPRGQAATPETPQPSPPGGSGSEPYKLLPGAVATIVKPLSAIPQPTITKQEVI
Calb FLC = C. albicans growth modulation with fluconazole. C. albicans CaCi-2 (fluconazole-resistant clinical isolate) + fluconazole, Alamar Blue growth, 48 h. growth inhibition, % (test concentration not listed). hit rate 0.57% among 300,000. AID 1979;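 active means most replicates above 75%; inconclusive means exactly half above 75%; inactive means most below 75%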;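 further: all wells also contain fluconazole at 8 µg/ml as a sub-toxic cotreatment; 0% = median of DMSO wells and 100% = median of geldanamycin control wells; wells of about 8 µL received 7.5 nL stock; the first replicate is given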
RanGTP-Imp inh = disruptors of Ran-importin-beta complex formation – biochemical, FRET, CFP-Ran, YFP-importin-beta, homogeneous, primary screen | cell-free CFP-Ran/YFP-importin-beta FRET ratio | inhibition, % (no concentration beside the values) | hit rate 1.1% among 300,000 | AID 2216;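 active means most replicates above 15%; inconclusive means exactly half above 15%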;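 further: 0% = DMSO wells and 100% = Ran loaded with GDP instead of GTP; wells of about 40 µL received 100 nL stock; the first replicate is given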
ALR H2O2 inh = human ALR oxidase inhibition via reduced H2O2. P55789. purified ALR, DTT oxidation, H2O2 HRP-luminol luminescence. inhibition, % (test concentration not listed). hit rate 3.8% among 290,000;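 active means mean and each replicate at 75% or more; inconclusive means only one of the two met; inactive means neither met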;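 further: stock transfer was 7.5 nL into about 7.5 µL; 0% = neutral wells and 100% = wells with inactivated enzyme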
Target sequence (P55789 whole entry, looked up): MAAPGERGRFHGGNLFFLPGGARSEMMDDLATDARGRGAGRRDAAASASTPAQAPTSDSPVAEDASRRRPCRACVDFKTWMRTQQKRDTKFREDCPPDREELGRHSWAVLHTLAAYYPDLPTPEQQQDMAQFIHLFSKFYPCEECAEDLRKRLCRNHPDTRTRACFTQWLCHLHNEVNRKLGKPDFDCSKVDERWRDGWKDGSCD
* hit, by the source's call; ? = inconclusive; . = no result given.

entry	Structure	LANA-H2B inh	B2AR ag	Vif A3G	HNF4A DNA FP	Calb FLC	RanGTP-Imp inh	ALR H2O2 inh
1	COc1ccc(-c2cc(-c3ccc(C)cc3)nc(SCc3nnc(-c4ccccc4)o3)c2C#N)cc1OC	-0.8	1.6	31.4%	11.5	-4.4	-0.7	-8.3
2	Cc1cccc(OCc2nnc(N)s2)c1C	-2.8	9.9	12.9%	-3.8	-3.0	1.2	5.7
3	CCOC(=O)c1ccc(-n2ncc(C(=O)OCC)c2N)cc1	1.8	2.8	63.6%	3.3	0.7	-2.0	.
4	Cc1ccc2nc(-c3ccncc3)cc(C(=O)Nc3ccc(OC(F)F)cc3)c2c1	3.0	-1.4	-10.0%	-3.1	-8.7	2.1	-12.0
5	CCN(CCCNS(=O)(=O)c1ccc2c(c1)oc(=O)n2C)c1cccc(C)c1	7.8	-11.0	15.2%	4.0	.	.	97.5*
6	Cc1ccc(-c2nnc(-c3cc(C)on3)o2)cc1	-3.0	-3.5	-4.2%	-2.1	-11.5	-3.0	.
7	O=C(CCc1ccccc1)Nc1ccc(S(=O)(=O)N2CCCC2)cc1	2.5	2.3	6.8%	-1.9	-12.2	?	-8.0
8	CC1C(=O)N2CCCc3cc(NC(=O)c4ccccc4Br)cc1c32 (centres undefined)	-3.7	5.2	5.4%	-0.6	-1.5	-0.4	-3.8
9	CC1CCCCC1NC(=O)CN1C(=O)COc2ccccc21 (centres undefined)	-1.8	-2.1	1.4%	0.7	-7.1	1.6	-3.0
10	CCC(C)NC(=O)CSc1nc2ccsc2c(=O)n1-c1ccc(OC)cc1 (centres undefined)	7.7	-6.3	7.1%	5.8	3.2	2.8	-10.2
11	CN(C(=O)CSc1nnc(Cc2cccs2)n1C1CC1)C1CCS(=O)(=O)C1 (centres undefined)	.	-0.7	6.4%	-1.2	.	.	.
12	O=C(C1CC(=O)N(C2CCCC2)C1)N1CCN(c2ccccc2)CC1 (centres undefined)	-4.9	0.7	.	1.3	-2.9	-4.3	25.1
13	CC1CCN(c2c([N+](=O)[O-])nn(-c3ccc4c(c3)OCCO4)[n+]2[O-])CC1	-0.1	-4.8	15.9%	-1.4	-12.6	-1.6	-13.6
14	O=C(Nc1c2c(nn1-c1cccc(Cl)c1)CS(=O)C2)c1ccc2c(c1)OCO2 (centres undefined)	1.3	-2.1	.	-0.3	3.6	-0.6	-5.1
15	Cc1nc(CC(=O)N/N=C/c2ccc(OCC(=O)O)cc2)cs1	-0.1	3.4	12.9%	2.9	-1.3	1.8	-10.1
16	CCN(CC)C(=O)c1cn(C)c2ccc(S(=O)(=O)N(CC)CC)cc2c1=O	-1.9	-5.5	2.5%	2.3	-10.4	-5.9	2.9
17	COCCNC(=O)c1onc(CSc2ccncc2)c1C(=O)NCCOC	1.4	-2.5	6.5%	-1.2	12.7	1.1	-2.8
18	O=S1(=O)C[C@H]2NC(=S)N(c3ccccc3)[C@H]2C1	-2.8	-6.5	14.0%	-0.3	-18.5	?	-8.9
19	COC(=O)c1c(NS(=O)(=O)c2ccc(C)cc2)sc2c1CCC(C)C2 (centres undefined)	0.9	9.8	.	-1.5	.	.	8.8
20	O=[N+]([O-])c1ccc(/C=N/Nc2ccnc3cc(Cl)ccc23)o1	4.5	-19.8	.	13.7	-22.1	-4.4	.
21	Cc1ccc(NC(=O)CN2C(=O)C3CC=C(Cl)CC3C2=O)cc1 (centres undefined)	-11.8	2.7	6.8%	-2.8	-10.2	-0.2	3.8
22	Cc1ccc(NC(=S)N2CCN(c3ccccn3)CC2)c(C)c1	-1.2	-0.2	.	0.1	-26.9	2.2	11.0
23	COc1cccc(CC2CC(=O)N(CCc3ccc4c(c3)OCO4)C2=O)c1 (centres undefined)	-3.5	-2.5	3.1%	-2.0	-24.4	1.6	-15.9
24	COc1ccc(C(=O)NCCN=C2NS(=O)(=O)c3ccccc32)cc1	-3.3	6.1	0.1%	0.9	2.9	-1.2	.
25	Cc1ccc(NC(=O)CCNS(=O)(=O)c2ccc3[nH]c(=O)oc3c2)c(Cl)c1	1.7	1.8	.	-1.6	-25.5	0.1	-7.6
26	NC(=O)COC(=O)CNC(=O)c1ccc(Cl)cc1	-2.1	1.6	-2.4%	-0.9	38.3	3.4	-3.6
27	COc1cc(C(=O)NC2CC(C)(C)CC(C)(C)C2)ccc1OC1CCN(C(C)=O)CC1	4.0	5.7	.	2.1	1.9	-1.4	-1.2
28	O=C(CCOc1ccccc1)NCc1ccccc1	-2.5	5.7	2.6%	-2.1	-2.6	-2.3	-6.6
29	Cc1[nH]nc(-c2ccc(OCc3cnn(-c4ccccc4)c3)cc2O)c1Oc1ccccc1F	-1.1	7.3	10.3%	0.7	4.4	2.8	-13.3
30	COc1cccc(-c2nc(OC(C)C)c3ccccc3n2)c1	3.1	-5.6	-0.8%	0.0	-7.0	3.8	0.7
31	COc1ccc(OC)c(C2C(C(=O)N(C)C)=C(C)Nc3nc4ccccc4n32)c1 (centres undefined)	7.5	-3.1	12.7%	-5.3	-16.6	0.0	-3.0
32	CCC(=O)N/N=C(\C)CC(=O)Nc1ccc2ccccc2c1	2.4	4.3	-6.0%	1.8	-7.0	1.0	-11.0
33	COC(=O)c1ccc(CSc2ncnc3c2nnn3-c2ccc(OC)cc2)o1	-5.5	4.0	-5.5%	12.6	-29.2	-0.9	?
34	Cc1cccc(NC(=O)Nc2cccc3ccccc23)c1	2.5	-5.0	-7.6%	-1.9	-0.7	2.6	-8.0
35	COc1ccc(C(=O)/C=C/Nc2ccc(S(=O)(=O)Nc3nc(C)cc(C)n3)cc2)c(OC)c1	4.4	-2.2	4.9%	3.6	0.5	0.1	1.0
36	CC(=O)c1cc2c(cc1NC(=O)CN1CCC(Cc3ccccc3)CC1)OCO2	4.7	16.4	-6.8%	-0.1	0.8	-1.8	.
37	CN(C)c1ccc(C(=S)N2CCN(C(=S)Nc3ccc(Cl)cc3)CC2)cc1	3.4	-3.1	0.1%	2.6	-39.4	-1.2	7.9
38	CN(C)CCNC(=O)CNC(=S)N(Cc1ccccc1)Cc1cccnc1	-1.9	-1.9	.	3.7	-0.9	-0.6	15.4
39	Cc1ccc2[nH]c3c(=O)n(CCN4CCOCC4)cnc3c2c1	8.1	-0.5	-11.3%	-3.5	6.0	0.1	-3.3
40	CCN(c1ccccc1)c1nc(=O)c2cccnc2s1	7.1	-10.6	.	0.9	13.5	3.6	-15.9
41	COC(=O)CCCCCCCCC(=O)Nc1nc2ccccc2s1	1.7	1.7	6.0%	-7.5	0.6	5.8	-10.0
42	CCN(CC)C(=O)CSc1nc(C)cc(C)n1	2.3	-1.4	6.2%	-6.5	10.1	2.5	-0.1
43	C=CC[C@@H](CC(=O)N[C@@H](CO)Cc1ccccc1)C(=O)NC[C@@H](OC(=O)[C@@H](CC=C)Cc1ccc(F)cc1)c1ccccc1	4.4	3.3	.	-0.3	.	.	-0.6
44	N#Cc1ccc(-c2ccccc2)nc1Sc1ccc(F)cc1	2.8	6.9	-31.6%	4.4	14.3	?	0.0
45	COc1ccccc1NC(=O)C[n+]1ccccc1	-6.3	2.0	1.0%	-3.9	-0.7	3.7	-5.0
46	Cc1ccc(C(=O)NN2C(=O)C3C4C=CC(C5CC45)C3C2=O)cc1 (centres undefined)	1.8	-7.8	1.1%	1.7	-18.5	-1.3	-1.8
47	NC(=O)CSCc1ccc(Br)cc1	2.6	-11.3	-1.3%	-0.9	4.1	2.3	-6.0
48	CC(=O)c1c(C)nc2ccc([N+](=O)[O-])cc2c1-c1ccccc1	-12.1	14.2	.	0.8	5.2	6.2	-26.9
49	C/C(CCc1ccc2c(c1)OCO2)=N\NC(=O)c1ccc(C)cc1C	0.9	6.1	4.3%	5.5	-3.1	1.7	-3.6
50	CC(=O)C1=C(O)C(=O)N(c2ccc(S(N)(=O)=O)cc2)C1c1cccc([N+](=O)[O-])c1 (centres undefined)	2.1	8.8	-1.3%	0.3	-3.3	-4.5	-7.2
51	Cc1cc(Cl)ccc1OCC(=O)NC(=S)Nc1ccc(Cl)cn1	-5.2	11.1	-5.8%	0.1	0.2	.	-9.3
52	CC(=O)Nc1ccc(/C=N/NC(=O)c2cc3ccccc3nc2C)cc1	-0.8	-5.6	-6.9%	1.6	-16.3	6.6	-1.0
53	O=c1c(C(c2ccc(Cl)cc2)c2c(O)nc3n(c2=O)CCS3)c(O)nc2n1CCS2	-1.0	-6.8	7.6%	-2.5	-5.2	0.2	97.8*
54	COc1ccccc1CC(=O)NCc1csc(-c2cccs2)n1	-1.1	5.6	.	3.1	-7.9	-3.9	-6.7
55	O=C(Nc1c2c(nn1-c1cccc(Cl)c1)CS(=O)(=O)C2)C1CC1	-1.0	-11.8	.	2.4	-4.1	-2.2	-8.0
56	Cc1ccc(S(=O)(=O)/N=C(/Nc2c(C)n(C)n(-c3ccccc3)c2=O)c2ccc(Cl)cc2)cc1	-2.5	3.8	-3.4%	-1.0	-12.3	-2.6	0.4
57	O=C(NNC(=O)c1ccccc1Cl)c1cc2cc(OC(F)(F)F)ccc2[nH]1	-6.3	-1.0	.	-2.7	-13.6	?	36.3
58	O=S(=O)(c1cccs1)N1CN(C2CCCCC2)c2nc3ccccc3nc21	-3.4	-7.1	-2.4%	1.3	1.1	3.0	33.2
59	OC[C@@H]1CCCN1Cc1nc(-c2cccs2)no1	0.7	-2.6	0.0%	0.6	-6.1	0.3	.
60	O=C(Nc1cccc2ccccc12)NC1CCCCC1	2.2	-2.3	.	-2.9	5.0	-1.8	-14.2

Additional structures:
entry	Structure	LANA-H2B inh	B2AR ag	Vif A3G	HNF4A DNA FP	Calb FLC	RanGTP-Imp inh	ALR H2O2 inh
61	CCCN=C1N(C)C[C@@H]2[C@@H]3C(=O)N(Cc4ccccc4)C(=O)[C@@H]3[C@](CC)(C(=O)OC)N12	.	-1.9	-7.3%	-4.0	.	.	.
62	Cc1ccc(C)c(N2CCN(C(=O)CCc3nc(-c4ccccc4C)no3)CC2)c1	.	-4.0	5.8%	-3.7	.	.	.
63	Cc1ccc(C)c(S(=O)(=O)N2CCN(C(C(=O)Nc3ccc(F)cc3)c3ccccc3)CC2)c1 (centres undefined)	-0.8	4.8	4.8%	3.0	-6.3	3.5	-0.4
64	CC(=O)Nc1ccc(OCC[n+]2cccc(C(N)=O)c2)cc1	-0.9	3.4	31.1%	0.8	-0.4	-1.4	-8.5
65	CN(C)c1nc2ncn(Cc3ccccc3)c2c(=O)[nH]1	1.4	4.7	-2.6%	-3.7	-12.5	-3.0	-0.9
66	CCOC(=O)c1c(N)sc2c1C1CCN2CC1	0.0	-2.5	-0.2%	-2.3	2.8	3.8	98.5*
67	COc1ccc(C)cc1Nc1nc(C)nc2c1oc1ccccc12	3.5	17.8	-6.0%	-1.1	-1.7	-2.9	-5.1
68	O=C(c1ccc(N2CCCS2(=O)=O)cc1)N1CCN(c2ccc(F)cc2)CC1	1.0	-1.9	.	0.5	2.1	1.6	19.5
69	CCCCCc1nnc(NC(=O)Cn2cnc3ccccc3c2=O)s1	3.0	-3.8	.	-1.7	-4.0	0.0	-11.5
70	O=C(c1cccc(OC2CCN(Cc3ccc(F)cc3Cl)CC2)c1)N1CCCC1	0.2	17.5	-0.3%	-1.6	0.1	-1.5	4.7
71	C=CCOc1c(Br)cc(/C=C2/C(=O)ON=C2C)cc1OC	-4.8	6.4	13.8%	-0.9	-2.9	6.2	70.7

Whole records, looked up by structure:
CCOC(=O)c1c(N)sc2c1C1CCN2CC1 is listed as LANA-H2B inh = 0.0; B2AR ag = -2.5; Vif A3G = -0.2%; HNF4A DNA FP = -2.3; Calb FLC = 2.8; RanGTP-Imp inh = 3.8; ALR H2O2 inh = 98.5*
O=C(c1cccc(OC2CCN(Cc3ccc(F)cc3Cl)CC2)c1)N1CCCC1 is listed as LANA-H2B inh = 0.2; B2AR ag = 17.5; Vif A3G = -0.3%; HNF4A DNA FP = -1.6; Calb FLC = 0.1; RanGTP-Imp inh = -1.5; ALR H2O2 inh = 4.7
